total CFTR = total CFTR protein upregulators, primary screen, cell-based, HeLa F508del-CFTR, immunofluorescence, viability (AID 1224863); HeLa F508del-CFTR, immunofluorescence total CFTR, 24 h; by the record results were divided by relative cell number; some inactives read as strong as hits; calls, or highest fold increase where a dose series was run; 0.1% of 10,000 active; in the data nearly all actives have a first-pass fold increase above 1.5; a few of its hits are not listed in these tables;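 note: total CFTR protein by anti-CFTR immunofluorescence in fixed cells; first pass at 25 µM or 10 µg/mL by library and series up to twice that; 1 = untreated cells; first-pass hits also needed half or more of the cells alive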
total CFTR fold 25 µM = recorded beside total CFTR, whose call it bears; fold increase; measured here: primary screen single dose 25 uM; library dosed in µM
total CFTR fold 10 ug/mL = second read-out of total CFTR, no call of its own (marks repeat the call); fold increase; measured here: primary screen 10 ug/mL
total CFTR viability 25 µM = second read-out of total CFTR, no call of its own (marks repeat the call); viability, %; measured here: primary viability 25 uM; library dosed in µM;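 0% = killed and 100% = untreated cells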
total CFTR viability 10 ug/mL = also measured in total CFTR; calls as there; viability, %; measured here: primary viability 10 ug/mL;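 0% = killed and 100% = untreated cells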
Active calls of the source: *; i = inactive; · = no result given; & = joins results of further samples. Some of the compounds tested (hit frequency here may not be typical).

SMILES	total CFTR	total CFTR fold 10 ug/mL	total CFTR viability 10 ug/mL	others
Cn1ccnc1CN(Cn1nc2ccccn2c1=S)C1CC1	i	1.12	104.0
O=C(O)CSCC(=O)NC1CCSC1=O (stereo not drawn)	i	·	·	total CFTR fold 25 µM=1.03&1.05;total CFTR viability 25 µM=97.0&110.0
O=C1CCCN1c1ccc(S(=O)(=O)NCCC2CCCO2)cc1 (stereo not drawn)	i	0.97	93.0
CC(C)(CNC(=O)C12CC3CC(CC(Cl)(C3)C1)C2)N1CCOCC1	i	0.85	78.0
O=C(NC1CCCCC1)N1CCN(Cc2cc([N+](=O)[O-])cc3c2OCOC3)CC1	i	1.1	88.0
O=C(/C=C/c1ccc(-n2ccnc2)c(F)c1)c1ccc(F)cc1	i	0.83	75.0
Cc1c(-c2cccc3ccccc23)c(=O)oc2ccc(Br)cc12	i	0.97	71.0
O=C(Cn1cnc2cc(F)ccc2c1=O)c1ccc(F)cc1F	i	1.01	101.0
Cn1nc(C(=O)OCn2nnc3ccccc3c2=O)c2ccccc2c1=O	i	1.06	94.0
O=C(NC1CCSc2ccccc21)C1CC=CCC1 (stereo not drawn)	i	0.89	81.0
CC1(c2cccc(C(F)(F)F)c2)NC(=O)NC1=O (stereo not drawn)	i	1.1	87.0
CC1c2ccsc2CCN1Cn1c(=O)oc2ccccc21 (stereo not drawn)	i	1.16	97.0
O=S(=O)(c1ccc(S(=O)(=O)N2CC=C(c3ccccc3)CC2)cc1)C(F)F	i	0.88	93.0
CC(NC(=O)C1CCN(C(=O)OC(C)(C)C)CC1)C12CC3CC(CC(C3)C1)C2 (stereo not drawn)	i	0.92	91.0
O=[N+]([O-])c1ccc(S(=O)(=O)Nc2cc(S(=O)(=O)N3CCOCC3)ccc2OCC(F)(F)F)cc1	i	0.95	81.0
COc1ccc2c(c1)N(CN1CCN(c3ccc([N+](=O)[O-])cc3)CC1)C(=O)C2=O	i	1.13	104.0
CCCCNc1cc(C(=O)O)cc(S(N)(=O)=O)c1Oc1ccccc1	i	·	·	total CFTR fold 25 µM=1.06&1.03&0.97;total CFTR viability 25 µM=77.0&83.0&107.0
CC(C)c1n[nH]c(=S)n1C1CC1	i	1	81.0
CNc1nnc(Sc2nc3cc(C)nn3c3ccccc23)s1	i	1.1	97.0
COC(=O)c1c(C)[nH]c(C(=O)CN(C)C2CCCCC2)c1C	i	1	92.0

Compounds listed so far that contain an NH in an aromatic ring (2):
SMILES	total CFTR	total CFTR fold 10 ug/mL	total CFTR viability 10 ug/mL	others
CC(C)c1n[nH]c(=S)n1C1CC1	i	1	81.0
COC(=O)c1c(C)[nH]c(C(=O)CN(C)C2CCCCC2)c1C	i	1	92.0

More results:
SMILES	total CFTR	total CFTR fold 10 ug/mL	total CFTR viability 10 ug/mL	others
CCN(CC)Cc1ccc(Nc2ccnc3cc(Cl)ccc23)cc1O	i	·	·	total CFTR fold 25 µM=1.34;total CFTR viability 25 µM=92.0
O=[N+]([O-])c1ccc(NCCNS(=O)(=O)N2CCCCCC2)cc1	i	0.89	95.0
O=C(O)c1ccc(/C=C/C(=O)c2cc(Cl)ccc2Cl)cc1	i	0.88	91.0
Cc1cnc(C(=O)OC(C)C(=O)C23CC4CC(CC(C4)C2)C3)cn1 (stereo not drawn)	i	1.03	108.0
CC(c1nnc(SCCNCCO)n1-c1ccc(F)cc1)N1CCCCC1 (stereo not drawn)	i	1.02	109.0
C[N+](C)(C)CCOP(=O)([O-])OP(=O)(O)OC[C@H]1OC(n2ccc(N)nc2=O)[C@H](O)[C@@H]1O (stereo partly drawn)	i	·	·	total CFTR fold 25 µM=0.91;total CFTR viability 25 µM=91.0
CC(C(=O)NC(C)(C)C)N1CCc2sccc2C1 (stereo not drawn)	i	1.05	87.0
COc1ccc2c(-c3ccccc3)cc(SC)nc2c1	i	1.11	94.0
CC(C)CNC(=O)Cn1c(=O)c2c(ncn2C)n(C)c1=O	i	1.13	94.0
OC[C@H]1OC([S-])[C@H](O)[C@@H](O)[C@@H]1O.[Au+] (stereo partly drawn)	i	·	·	total CFTR fold 25 µM=0.94;total CFTR viability 25 µM=83.0
Cc1cc(C(=O)N2CCNCC2)on1	i	1.13	98.0
COCC(C)n1c(C)cc(C(=O)CSc2nc3scc(-c4cccs4)c3c(=O)[nH]2)c1C (stereo not drawn)	i	1.05	104.0
O=[N+]([O-])c1ccc(S(=O)(=O)N2CCC(OCc3ccccc3)CC2)cc1	i	0.96	112.0
OCc1ccccc1O[C@@H]1O[C@H](CO)[C@@H](O)[C@H](O)[C@H]1O	i	·	·	total CFTR fold 25 µM=1.09;total CFTR viability 25 µM=99.0
CN(Cc1ccccc1[N+](=O)[O-])C1CCc2ccccc21 (stereo not drawn)	i	1.23	87.0
CC1CN(C(C)C(=O)Nc2ccnn2C(C)C)CC(C)O1 (stereo not drawn)	i	1.04	101.0
Cn1cc(S(=O)(=O)NC2CCSc3ccccc32)c(=O)n(C)c1=O (stereo not drawn)	i	0.89	93.0
C=CCn1c(C)nn(CN2CCCc3c(F)cc(F)cc32)c1=S	i	0.95	102.0
CC(C)(C)C(NCn1nc2ccccn2c1=S)c1cccs1 (stereo not drawn)	i	0.93	93.0
O=S(=O)(N1CCCC1)N1CCN(Cc2c(O)ccc3ccccc23)CC1	i	1.05	103.0

Reprinted at random: 5 records from the list, in no set order.
SMILES	total CFTR	total CFTR fold 10 ug/mL	total CFTR viability 10 ug/mL	others
CN(Cc1ccccc1[N+](=O)[O-])C1CCc2ccccc21 (stereo not drawn)	i	1.23	87.0
COc1ccc2c(-c3ccccc3)cc(SC)nc2c1	i	1.11	94.0
C[N+](C)(C)CCOP(=O)([O-])OP(=O)(O)OC[C@H]1OC(n2ccc(N)nc2=O)[C@H](O)[C@@H]1O (stereo partly drawn)	i	·	·	total CFTR fold 25 µM=0.91;total CFTR viability 25 µM=91.0
OCc1ccccc1O[C@@H]1O[C@H](CO)[C@@H](O)[C@H](O)[C@H]1O	i	·	·	total CFTR fold 25 µM=1.09;total CFTR viability 25 µM=99.0
Cc1cc(C(=O)N2CCNCC2)on1	i	1.13	98.0

(listing goes on)
SMILES	total CFTR	total CFTR fold 10 ug/mL	total CFTR viability 10 ug/mL	others
CCCCC(=O)NC1CCCc2c1cnn2C (stereo not drawn)	i	1.34	100.0
Nc1nc(=O)n(C2CS[C@H](CO)O2)cc1F (stereo partly drawn)	i	·	·	total CFTR fold 25 µM=0.92;total CFTR viability 25 µM=88.0
Cc1ccsc1CN(C)Cn1nc2ccccn2c1=S	i	1.07	89.0
Cc1ccccc1Cn1ncc(Cl)c(Cl)c1=O	1.92	1.24	73.0
O=S(=O)(NC1CCN(S(=O)(=O)N2CCOCC2)CC1)c1ccccc1	i	0.99	103.0
NC(=O)C(NC(=O)c1ccc(=O)[nH]n1)C(N)=O	i	1.08	106.0
COC(=O)c1c(C)[nH]c(C(=O)OCC(=O)c2c(N)n(CC(C)C)c(=O)n(C)c2=O)c1C	i	0.93	87.0
CN=C(NC#N)NCCSCc1nc[nH]c1C	i	·	·	total CFTR fold 25 µM=1.15&0.99&1.08;total CFTR viability 25 µM=75.0&87.0&103.0
CC(C)c1cc(NC(=O)CN(C)C2CCCCC2)on1	i	1.07	103.0
Cc1nn(C)c(=O)c(-c2nc(-c3ccc(Cl)s3)cs2)c1C	i	0.96	87.0
COC(=O)C1(NC(=O)c2ccc(S(=O)(=O)N3CCCCC3)o2)CCC(C)CC1 (stereo not drawn)	i	1	94.0
Cc1cnc(NC(=O)C2=C(O)c3ccccc3S(=O)(=O)N2C)s1	i	·	·	total CFTR fold 25 µM=0.99&1.01;total CFTR viability 25 µM=105.0&106.0
N#Cc1ccc(Sc2nnnn2C2CC2)c([N+](=O)[O-])c1	i	0.64	19.0
CCOC(=O)c1cn[nH]c1S(=O)(=O)Nc1c(C)nn(C)c1C	i	1.05	88.0
Cc1c(C)c(C)c(S(=O)(=O)Nc2ccc3cn[nH]c3c2)c(C)c1C	i	1.23	84.0
CCCS(=O)(=O)NC1CCN(C(=O)c2cc(S(=O)(=O)N3CCCC3)c(C)o2)CC1	i	0.96	103.0
CCOC(=O)c1c(C)[nH]c(C(=O)C(C)OC(=O)c2ccoc2)c1C (stereo not drawn)	i	0.97	88.0
Cc1occc1C(=O)N1CCC(N)CC1	i	1.08	94.0
O=C(NCc1cc2cc(F)ccc2s1)C12CC3CC(CC(C3)C1)C2	i	1.1	100.0
CN(C)CCOC(=O)COc1ccc(Cl)cc1	i	·	·	total CFTR fold 25 µM=0.99;total CFTR viability 25 µM=91.0
CO/N=C1\CN(c2nc3c(cc2F)c(=O)c(C(=O)O)cn3C2CC2)CC1CN (stereo not drawn)	i	·	·	total CFTR fold 25 µM=1.07;total CFTR viability 25 µM=88.0
CCC1c2ccsc2CCN1CC(=O)NC1(C)CCS(=O)(=O)C1 (stereo not drawn)	i	0.96	93.0
CC(C)n1nnnc1SCc1nc(N)c2c3c(sc2n1)CCCC3	i	0.98	91.0
Cn1ccnc1C(NS(=O)(=O)N1CCOCC1)c1cccc(F)c1 (stereo not drawn)	i	1.04	95.0
COc1ccc(S(=O)(=O)N2CCCc3cc(F)cc(F)c32)c([N+](=O)[O-])c1	i	0.91	84.0
NC(=O)Cn1ccc(N)n1	i	1.17	96.0
COCCOc1ccc(C(F)(F)F)cc1NS(=O)(=O)c1c(C)noc1C	i	0.95	104.0
Cn1c(-c2ccc(Cl)cc2)nn(CN2CCCC2c2ccc3c(c2)OCCO3)c1=S (stereo not drawn)	i	0.93	98.0
CN(C)C(CNCc1cc(Cl)c2c(c1)OCCCO2)c1ccco1 (stereo not drawn)	i	0.93	87.0
Cc1oc(C(=O)O)cc1S(=O)(=O)N1CCCC1	i	1.02	96.0
O=C(COCC1CC1)Nc1nccs1	i	1.1	101.0
COCCSCC(=O)NC1CCC(C)CC1 (stereo not drawn)	i	0.97	94.0
O=C1NC2(CCCCCC2)C(=O)N1CN(C1CC1)C1CCc2ccccc21 (stereo not drawn)	i	1.08	87.0
c1coc(-c2nnc(SCc3csc(-c4cccs4)n3)o2)c1	i	1.01	92.0
CC(Sc1nnc(C2CC2)n1CCC(N)=O)C(=O)C12CC3CC(CC(C3)C1)C2 (stereo not drawn)	i	1.06	100.0
O=C(O)c1ccc2c(=O)n3c(nc2c1)/C(=C\c1c(-c2ccccc2)nc2ccccn12)CC3	i	0.93	102.0
CCNCc1ccc(Cl)c(Cl)c1	i	1.13	85.0
CC(Oc1ccc(Br)cc1Cl)C(=O)C12CC3CC(CC(C3)C1)C2 (stereo not drawn)	i	0.97	112.0
O=C(OCc1ccccc1)c1ccccc1	i	·	·	total CFTR fold 25 µM=1.09;total CFTR viability 25 µM=101.0
CCN(CC)S(=O)(=O)c1ccc2oc3c(c(=O)c2c1)c(=O)n(C)c(=O)n3C	i	0.96	95.0

Next part; it opens with the 2 that closed the last part.
SMILES	total CFTR	total CFTR fold 10 ug/mL	total CFTR viability 10 ug/mL	others
O=C(OCc1ccccc1)c1ccccc1	i	·	·	total CFTR fold 25 µM=1.09;total CFTR viability 25 µM=101.0
CCN(CC)S(=O)(=O)c1ccc2oc3c(c(=O)c2c1)c(=O)n(C)c(=O)n3C	i	0.96	95.0
CCCC(=O)Nc1cc(C(C)(C)C)nn1C	i	0.98	91.0
COc1ccc(S(=O)(=O)Nc2ccc(N3CCCC3)cc2)cc1OC	i	0.85	84.0
Cc1cn([C@H]2C[C@@H](N=[N+]=[N-])[C@@H](CO)O2)c(=O)[nH]c1=O	i	·	·	total CFTR fold 25 µM=1.08&1.05;total CFTR viability 25 µM=100.0&102.0
COC(=O)c1sccc1NC(=O)C1CCC1	i	0.94	84.0
Cc1nc(CCNC(=O)C2CCC2)cs1	i	1.07	98.0
CN1CCN(C(=O)CCC2CCCC2)c2nc3ccccc3nc21	i	1.01	93.0
Cc1ccc(C(=O)c2cc3cc(Cl)ccc3o2)s1	i	0.96	77.0
CCCSc1nnc(C2CC2)n1CC(N)=O	i	1.06	96.0
O=C(c1cnc2c3cccnc3nn2c1)c1ccccc1O	i	0.91	82.0

Grouped by structure, those above containing a CF3 group (three)
SMILES	total CFTR	total CFTR fold 10 ug/mL	total CFTR viability 10 ug/mL	others
CC1(c2cccc(C(F)(F)F)c2)NC(=O)NC1=O (stereo not drawn)	i	1.1	87.0
O=[N+]([O-])c1ccc(S(=O)(=O)Nc2cc(S(=O)(=O)N3CCOCC3)ccc2OCC(F)(F)F)cc1	i	0.95	81.0
COCCOc1ccc(C(F)(F)F)cc1NS(=O)(=O)c1c(C)noc1C	i	0.95	104.0

Screens (PubChem)
